rRNA inh HTS – inhibitors of bacterial rRNA selective over humanized ribosomes; E. coli WT GFP vs humanized-ribosome RFP mutants, fluorescence, 24 h; hits give low values; DMSO median 0, no signal -100; GFP signal change (wild-type ribosome), % (concentration not given with the values); 1.6% of 350,000 active;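 active = significant combined selectivity score with lowered wild-type GFP, culture density cut under 30%, mutant RFP and density less affected; inactive = any of these conditions unmet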; also: one replicate is shown; some compounds called inactive have numbers as strong as hits
ALR H2O2 inh – human ALR oxidase inhibition via reduced H2O2. 3.8% of 290,000 active. inhibition, % (test concentration not listed). P55789. purified ALR, DTT oxidation, H2O2 HRP-luminol luminescence;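 active = mean and each replicate at 75% or more; inconclusive = only one of the two met; inactive = neither met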;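 also: stock transfer was 7.5 nL into about 7.5 µL; 0% = neutral wells and 100% = wells with inactivated enzyme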
Target sequence (P55789 whole entry, looked up): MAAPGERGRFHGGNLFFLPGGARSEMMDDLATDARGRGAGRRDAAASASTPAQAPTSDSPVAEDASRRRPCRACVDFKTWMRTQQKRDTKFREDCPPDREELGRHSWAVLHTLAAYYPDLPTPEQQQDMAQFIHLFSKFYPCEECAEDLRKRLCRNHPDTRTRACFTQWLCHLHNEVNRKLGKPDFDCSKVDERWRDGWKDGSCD
MLL AF4-AF9 inh – blocks AF4 peptide binding to human AF9 | inhibition, % at 10 µM | P42568 | AlphaScreen, biotin-AF4 peptide binding to FLAG-AF9 | 0.47% of 350,000 active;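 active = every replicate reaching a set inhibition limit, whatever the replicate mean, cut at about 25% in these data; inconclusive = mean inhibition reaches that limit but some replicates miss it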;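 also: 0% = plate neutral control median and 100% = total signal loss; the record names both 10 and 1 µM as test concentration; the first replicate is given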
Target sequence (P42568 whole entry, looked up): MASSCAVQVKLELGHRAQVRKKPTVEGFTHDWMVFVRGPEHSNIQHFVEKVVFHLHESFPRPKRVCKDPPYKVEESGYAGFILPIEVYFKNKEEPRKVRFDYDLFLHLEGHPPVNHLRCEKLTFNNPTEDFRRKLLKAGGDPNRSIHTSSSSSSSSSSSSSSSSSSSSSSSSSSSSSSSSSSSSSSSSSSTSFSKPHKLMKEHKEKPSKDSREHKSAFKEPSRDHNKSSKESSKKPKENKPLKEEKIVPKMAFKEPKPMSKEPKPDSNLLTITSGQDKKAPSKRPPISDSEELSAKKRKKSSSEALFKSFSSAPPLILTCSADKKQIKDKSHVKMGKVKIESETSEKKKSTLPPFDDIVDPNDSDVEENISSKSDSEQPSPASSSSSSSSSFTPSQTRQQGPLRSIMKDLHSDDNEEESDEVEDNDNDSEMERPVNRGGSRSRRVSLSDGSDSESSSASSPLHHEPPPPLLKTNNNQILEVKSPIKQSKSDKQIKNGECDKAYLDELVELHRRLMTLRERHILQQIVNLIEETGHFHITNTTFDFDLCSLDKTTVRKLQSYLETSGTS
Vif TR-FRET – HIV-1 Vif–A3G interaction blockers – biochemical, TR-FRET, GST-Vif 1-94, biotin-A3G peptide, dose response retest, primary screen (AID 1117319); TR-FRET GST-Vif / biotin-A3G peptide binding; higher % means a stronger effect; test concentration not given here; strong numbers were not always called active; inhibition, %, or IC50 in µM where a hit was titrated; 0.57% of 260,000 active;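 active = above the screen mean plus three standard deviations and confirmed in dose response; inconclusive = results disagree or hit not tested in dose response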;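 also: Vif residues 1-94 fused to GST binding biotinylated APOBEC3G peptide 110-148; 0% = full assay without inhibitor and 100% = GST in place of GST-Vif; retest series ran down from 100 µM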
HNF4A DNA FP – change in binding of human HNF4 alpha to DNA | activity change, % at 10 µM | P41235 | 0.3% of 360,000 active | HNF4a-FITC DNA binding, fluorescence polarization, 1 h; in the data active = activity change above about 30%, passing the limit was not always enough;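 also: controls were the assay level and a saturating level of protein; the project sought stronger binding though the title names inhibitors; some compounds called inactive have numbers as strong as hits; positive values seem to mean higher polarization but the record does not say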
FGF22 binding – FGF22 (human) thermal shift binding; Q9HCT0; recombinant FGF22 thermal shift, SYPRO orange fluorescence; percent of sucrose octasulfate shift, DMSO zero; calls only at 9.99 µM; 1.5% of 340,000 active; AID 651658;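 active = melting point raised past a set limit in the mean and every replicate; inconclusive = no clear call; three in four hits are not shown here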
Target sequence (Q9HCT0 whole entry, looked up): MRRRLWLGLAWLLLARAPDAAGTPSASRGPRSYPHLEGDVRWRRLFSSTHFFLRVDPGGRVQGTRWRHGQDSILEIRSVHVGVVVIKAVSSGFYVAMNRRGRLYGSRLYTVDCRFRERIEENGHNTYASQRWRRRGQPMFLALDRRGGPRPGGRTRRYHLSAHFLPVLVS
E coli growth – blocks Escherichia coli growth | OD600, 23 h; hits give low values | OD600 absorbance (test concentration not listed) | 0.21% of 330,000 active;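 active = OD600 absorbance below the run mean of sample wells minus 3.6 SD, in any replicate, cut at about 0.56 in these data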;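 also: stock transfer was 300 nL into about 60 µL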
rRNA inh HTS OD600 – further read-out of rRNA inh HTS, marked with its call; OD600 change, %; measured here: OD600 growth;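 optical density of the mix in the first replicate; 0 = DMSO median and -100 = no signal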
rRNA inh HTS RFP – further read-out of rRNA inh HTS, marked with its call; RFP signal change, %; measured here: RFP humanized mutant strains;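 first replicate; 0 = DMSO median and -100 = no signal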
Active calls of the source: *; i = inactive; ? = inconclusive; . = no result given; & = joins results of further samples.

SMILES	rRNA inh HTS	rRNA inh HTS OD600	rRNA inh HTS RFP	ALR H2O2 inh	MLL AF4-AF9 inh	Vif TR-FRET	HNF4A DNA FP	FGF22 binding	E coli growth
CO[C@@H]1CN(C)C(=O)c2cc(NS(=O)(=O)Cc3ccccc3)ccc2OC[C@@H](C)NC[C@H]1C	2	0	1.1	.	3.2	.	.	i	.
C=CC[C@@H](CC(=O)N(CCO)Cc1ccccc1)C(=O)N[C@H](COC(=O)[C@@H](CC=C)CC(=O)OC(C)(C)C)Cc1c[nH]c2ccccc12	10	1	8.4	3	-0.7	.	3.0	i	.
Cc1ccccc1SCC(=O)NNC(=O)c1ccncc1	6	13	1.5	2	-4.6	-8%	1.4	i	0.7
COc1ccc(C(=O)N2N=C(c3cccc(OC)c3)CC2(O)C(F)(F)F)cc1 (configuration not stated)	-11	-10	-0.9	-28	2.4	-3%	3.1	i	0.71
O=C(CCCN1C(=O)c2ccccc2C1=O)N1CCOCC1	11	14	2.1	1	-17	5%	-0.1	.	0.67
Cc1cccc(C)c1OCC(O)CNS(=O)(=O)c1ccccc1C(=O)N1CCCCC1 (configuration not stated)	.	.	.	-3	.	?	-3.0	.	0.7
CCCc1cn(CC[C@H]2CC[C@H](NC(=O)C3CCC3)[C@H](CO)O2)nn1	0	0	0.0	.	-2.4	.	.	i	.
O=C(Nc1cccc(F)c1)N1CC(=O)N2[C@H](CO)[C@@H](c3ccc(Br)cc3)[C@@H]2C1	-12	-6	0.9	.	2.2	.	.	i	.
CCCNC(=O)C[C@@H]1CC[C@@H]2[C@@H](COc3ccc(NC(=O)CCC)cc3C(=O)N2C)O1	2	4	-1.7	.	-0.8	.	.	i	.
C[C@H]1CN([C@@H](C)CO)C(=O)c2cccc(NC(=O)C3CC3)c2O[C@@H]1CN(C)S(=O)(=O)c1ccc(Cl)cc1	-2	6	0.4	.	-1.7	.	.	i	.
COc1ccc(NC(=S)N2CCCN(Cc3cccc(Cl)c3)C2)cc1	-10	-4	-1.8	-5	-6.1	-12%	-2.9	i	0.62
CCS(=O)(=O)Nc1ccc2c(c1)C(=O)N(C)C[C@H](OC)[C@@H](C)CN(C)[C@@H](C)CO2	2	1	0.9	.	-1.8	.	.	i	.
COc1ccc(S(=O)(=O)N[C@H]2C=C[C@@H](CC(=O)NCc3ccccc3F)O[C@H]2CO)cc1	-4	-7	0.5	.	-12	.	.	i	.
COc1cc(C(=O)NC2CCN(Cc3nnnn3Cc3ccc(F)cc3)CC2)cc(OC)c1OC	-3	-9	2.9	-3	-1.4	.	-1.6	i	0.72
CC(=O)N(C)c1cc([N+](=O)[O-])ccc1OCc1ccccc1	-15	-2	0.2	.	-1.2	-2%	2.4	i	.

Brought forward from above: 3 entries; new compounds follow.
SMILES	rRNA inh HTS	rRNA inh HTS OD600	rRNA inh HTS RFP	ALR H2O2 inh	MLL AF4-AF9 inh	Vif TR-FRET	HNF4A DNA FP	FGF22 binding	E coli growth
COc1ccc(S(=O)(=O)N[C@H]2C=C[C@@H](CC(=O)NCc3ccccc3F)O[C@H]2CO)cc1	-4	-7	0.5	.	-12	.	.	i	.
COc1cc(C(=O)NC2CCN(Cc3nnnn3Cc3ccc(F)cc3)CC2)cc(OC)c1OC	-3	-9	2.9	-3	-1.4	.	-1.6	i	0.72
CC(=O)N(C)c1cc([N+](=O)[O-])ccc1OCc1ccccc1	-15	-2	0.2	.	-1.2	-2%	2.4	i	.
COc1ccccc1C1(CC(=O)Nc2nccs2)CCOC(C(C)C)C1 (configuration not stated)	.	.	.	-18	.	5%	-1.1	.	0.72
O=S(=O)(c1ccccc1)[C@@]1(c2ccc(Br)cc2)C[C@@H]2ON=C(c3ccccc3)[C@@H]2C1	-1	-10	-2.4	-4	1.7	.	2.4	i	.
O=C(COC(=O)CCC(=O)c1ccc(F)cc1)NC1CCCCC1	-4	-12	3.5	1	-0.4	-2%	2.1	i	0.69
CCC(C)NCCCOc1c(C)cc(C)cc1Br (configuration not stated)	.	.	.	.	.	-2%	-0.3	.	0.67
CO[C@H]1CN(C)C(=O)c2cc(NC(=O)CC(F)(F)F)ccc2OC[C@H](C)N(S(=O)(=O)c2cn(C)cn2)C[C@@H]1C	4	6	-1.2	.	-1.5	.	.	i	.
Cc1ccc(Nc2c(-c3ccco3)nc3nc(C)cc(C)n23)cc1	-8	-5	1.4	52	9.3	3%	4.9	i	0.72
COCCN(C[C@@H]1[C@@H](c2ccccc2)[C@H](CO)N1C(C)=O)C(=O)c1ccccc1	2	6	-1.7	.	-2.4	.	.	i	.
C[C@H](CO)N1C[C@H](C)[C@@H](CN(C)Cc2ccccc2)Oc2cc(C#Cc3ccccn3)ccc2S1(=O)=O	-5	-4	6.4	.	1.5	.	.	i	.
CC(C)(C)OC(=O)N1CCC(NC(=O)c2[nH]cnc2C(=O)Nc2ccon2)CC1	-1	-2	-2.7	0	-1.5	.	3.3	i	0.68
NC(=O)NC(=O)C(c1ccccc1)N1CCN(S(=O)(=O)Cc2ccccc2)CC1 (configuration not stated)	9	10	5.2	-2	-1.0	-3%	0.6	i	0.7
CC(=O)Nc1ccc(C=Cc2ccc([N+](=O)[O-])cc2)cc1	2	4	-1.7	.	-0.7	-3%	4.0	i	.
CCOc1ccc(OCC)c(NS(=O)(=O)c2ccc3c(c2)n(C)c(=O)c(=O)n3C)c1	.	.	.	-18	.	12%&-3%	2.9	.	0.71
C[C@@H]1CN([C@@H](C)CO)S(=O)(=O)c2ccc(-c3cccc(C#N)c3)cc2O[C@@H]1CN(C)Cc1cccc(F)c1	-5	-6	4.2	.	-1.0	.	.	i	.
Cc1ccc2c(c1)C(=O)CC(O)(C(F)(F)F)O2 (configuration not stated)	.	.	.	-4	.	.	-2.3	i	0.67
CC1=CCC2C(=O)N(c3cccc(C(=O)Nc4ccc(Cl)cc4)c3)C(=O)C2C1 (configuration not stated)	-31	-31	-3.3	2	0.5	.	-4.7	i	0.67
Cc1cccc(NS(=O)(=O)c2ccc(C(=O)NCC(c3ccco3)N3CCCCC3)cc2)c1C (configuration not stated)	-3	-27	18	12	2.2	3%	-4.0	.	0.62
COc1ccc(OC)c(S(=O)(=O)NCc2cn3c(C)csc3n2)c1	4	3	0.4	-26	7.4	2%	-1.4	i	0.76
O=C(O)CSC(=S)N1CCCCC1	.	.	.	51	.	.	-3.8	.	0.7
O=C(CSc1n[nH]c(=O)[nH]c1=O)N/N=C/C=C\c1ccccc1	14	14	-1.3	-5	-0.3	-5%	1.4	.	.
Cc1ccc(S(=O)(=O)N2CCOCC2)cc1NC(=O)COC(=O)c1cccc(Cl)c1Cl	-32*	-25*	-5.9*	.	-0.1	.	5.4	.	0.64
C[C@H]1CN([C@@H](C)CO)C(=O)CCCn2cc(nn2)CO[C@@H]1CN(C)C(=O)Nc1ccccc1F	-1	-1	3.9	.	-2.4&-0.4	-7%	-1.5	i	.
CCN(CC)C(=O)c1cc([N+](=O)[O-])cc2c1-c1ccc([N+](=O)[O-])cc1C2=C(C#N)C#N	-4	-1	1.2	.	0.1	4%	1.5	i	.
C[C@H]1CN([C@@H](C)CO)C(=O)c2cc(-c3cccc(C#N)c3)cnc2O[C@H]1CN(C)Cc1ccccc1	0	15	0.3	.	-0.7	.	.	i	.
C[C@@H]1CN([C@H](C)CO)S(=O)(=O)c2ccc(-c3cncnc3)cc2O[C@@H]1CN(C)C(=O)C1CCC1	2	7	-1.9	.	0.4	.	.	i	.
CN(C)c1ccc(CNc2nc3cc(-c4ccc(F)cc4)sc3c(=O)n2C)cc1	1	-1	-0.8	.	-1.9	.	4.1	i	.
COc1ccc(S(=O)(=O)N(C)C[C@H]2OCCCC[C@H](C)Oc3ccc(NS(=O)(=O)c4ccc(C)cc4)cc3C(=O)N([C@@H](C)CO)C[C@H]2C)cc1	2	-4	2.0	.	-1.1	.	.	i	.
CC(=O)Nc1ccc2c(c1)C(=Nc1ccccc1)c1ccccc1-2	-5	-1	11	.	5.2	1%	-2.1	i	0.62
COc1ccc(NC(=O)Nc2cccc3c2O[C@H](CN(C)Cc2ccc(C(F)(F)F)cc2)[C@@H](C)CN([C@H](C)CO)C3=O)cc1	2	-3	-2.1	.	1.9	.	.	i	.
COc1ccc(C(=O)/C=C/c2ccc(N3CCCCC3)c([N+](=O)[O-])c2)c(OC)c1	.	.	.	12	.	25%	-3.2	.	0.74
CN(C)CCCn1c(NCc2ccc3c(c2)OCO3)nc2ccccc21	.	.	.	21	.	?	-2.8	.	0.7
C=CCN1C(=O)C2(/C(=C(\O)c3ccc4c(c3)OCCO4)C(=O)C(=O)N2CCCOC)c2ccccc21 (configuration not stated)	7	10	-5.9	-3	2.3	0%	-1.1	i	0.66
CCCOc1ccc(NC(=O)c2cc3cc(C)ccc3[nH]2)cc1	5	6	-1.5	-6	-1.9	.	-1.9	i	0.69
COc1ccc(C2=NOC(C)(c3nnc(-c4ccccc4)o3)C2)cc1 (configuration not stated)	.	.	.	-11	.	.	-1.5	.	0.68
C[C@H]1CN([C@@H](C)CO)S(=O)(=O)c2ccc(C#CC3CC3)cc2O[C@@H]1CN(C)C(=O)CC1CC1	1	-5	-0.4	.	-0.6	.	.	i	.
CC(C)NC(=O)C(=O)NCC(c1ccc2c(c1)OCO2)N1CCOCC1 (configuration not stated)	5	3	-0.2	-2	-3.3	-5%	-1.4	i	0.69
COC(=O)c1ccc(NC(=O)CSc2nnc(-c3ccccc3Br)n2-c2ccccc2)cc1	25	4	-0.5	.	0.9	.	1.1	i	0.7
O=C(c1c[nH]c(C(=O)C(Cl)(Cl)Cl)c1)c1ccccc1F	5	10	-0.4	-1	0.0	2%	0.5	i	0.62
CO[C@H]1CN(C)C(=O)c2ccc(NS(=O)(=O)c3cccc(F)c3)cc2OC[C@H](C)NC[C@@H]1C	3	5	-2.7	.	-3.3	.	.	i	.
C[C@@H]1CN([C@@H](C)CO)C(=O)Cc2cc(NC(=O)Nc3ccccc3)ccc2O[C@H]1CN(C)S(=O)(=O)c1ccc(Cl)cc1	2	7	1.6	.	1.1	.	.	i	.
C[C@H]1CN([C@@H](C)CO)C(=O)Cc2cc(NC(=O)C3CC3)ccc2O[C@H]1CN(C)Cc1ccc(Oc2ccccc2)cc1	-11&-14	-40&-33	6.3&8.3	-5	6.3&11	.	-2.2	i	.
Cn1c(SCc2ccc([N+](=O)[O-])cc2)nc2c(c1=O)SCC2	7	-1	-1.3	99*	-0.7	-2%	2.1	i	0.7
CCOc1ccc(C(=O)c2ccncc2)cc1	.	.	.	-3	.	1%	0.8	.	0.67
Cc1ccc(C(=O)NC2CCN(C(=O)Nc3ccccc3)CC2)cc1	14	19	3.1	-15	-1.2	.	4.7	i	0.67
C[C@@H]1CN([C@@H](C)CO)C(=O)c2cc(C#CCc3ccccc3)cnc2O[C@H]1CN(C)Cc1ccccn1	2	3	-0.6	.	1.7	.	.	i	.
COc1ccc(C2C(C#N)=C(N)Oc3cc(C)[nH]c(=O)c32)c(OC)c1OC (configuration not stated)	.	.	.	-1	-9.6	2%	-3.2	.	.
O=C(CSC(=S)N1CCCCC1)c1c(F)cccc1F	.	.	.	72	-1.4	.	3.0	i	0.64
CCCCc1c(O)c2cccc3c2n(c1=O)CCC3	-18	-17	-6.2	-5	-1.9	.	-0.4	i	0.64

The list is partial; rates above refer to the full screens.
